PINK1 expr mod – A Quantitative High throughput Screen to Identify Chemical Modulators of PINK1 Expression; PINK1 immunofluorescence, high-content cytometry, 24 h; 410,000 compounds, 0.2% hits; Potency, µM (top dose mostly 76.6 µM), for inactives: top-dose activation (PINK1 increase), hits mostly activators; active = well fitted activation curve with a large enough effect; inconclusive = small, poorly fitted or top-dose-only effect; inactive = flat fitted curve, though single readings scatter; cell line not stated here;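 also: potency is read from the fitted curve at half-maximal effect; % of control where 0% means no effect; nearly all actives have a fitted effect of over 65% in size; a mitochondrial uncoupler was the plate control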
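Compound titrations (5 concentrations, 24 h) on a stable cell line; DMSO and CCCP controls. Endpoint: fixed-cell PINK1 immunofluorescence with mitochondrial, cell and nuclear markers, scanned by microplate cytometer.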
D2 potentiator – Beta-Arrestin HTS for Positive Allosteric Modulators of the Human D2 Dopamine Receptor: Potentiators | D(2) dopamine receptor (Homo sapiens), P14416 | DiscoveRx D2 beta-arrestin cells, luminescence, 90 min; 100% = 57 uM dopamine signal | potentiation, % (test concentration not listed) | 360,000 compounds, 0.23% hits; active = potentiation of 50% or more; inconclusive = 30% to 50%; inactive = 30% or less;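 also: compound concentration not given in the record; tested on top of an EC20 dose of dopamine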
Target sequence (P14416 whole entry, looked up): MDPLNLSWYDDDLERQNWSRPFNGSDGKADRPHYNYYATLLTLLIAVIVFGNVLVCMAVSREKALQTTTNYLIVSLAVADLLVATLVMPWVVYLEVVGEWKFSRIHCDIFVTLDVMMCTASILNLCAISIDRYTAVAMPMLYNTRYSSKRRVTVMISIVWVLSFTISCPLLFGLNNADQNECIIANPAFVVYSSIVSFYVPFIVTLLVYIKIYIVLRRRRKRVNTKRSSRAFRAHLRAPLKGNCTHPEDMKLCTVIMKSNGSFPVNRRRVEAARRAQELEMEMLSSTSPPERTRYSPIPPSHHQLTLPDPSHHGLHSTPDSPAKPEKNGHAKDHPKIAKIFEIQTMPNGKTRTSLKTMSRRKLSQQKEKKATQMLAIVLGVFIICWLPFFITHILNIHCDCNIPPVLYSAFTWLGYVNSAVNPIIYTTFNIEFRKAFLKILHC
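D2 cells co-treated with compound plus 50 nM dopamine (EC20) for 90 min at 37 deg C to detect potentiation. Beta-arrestin recruitment was read as enzyme-fragment luminescence after 1 h at ambient temperature. Full response was set by 57 uM dopamine.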
TRPML1 ag – qHTS for Agonists of the Human Mucolipin Transient Receptor Potential 1 (TRPML1); TRPML1-expressing cells, Ca2+ dye fluorescence, FDSS; host cell line not named in the record; reference of the full effect not given here; activation, % (test concentration not listed); 410,000 compounds, 0.12% hits; AID 624414, 2012; in the data active = activation above about 50%; inconclusive = about 30% to 50%; inactive = below about 30%; also: 0% is about no effect; the text of the record puts the active cut at 80%
Target sequence (Q9GZU1 whole entry, looked up): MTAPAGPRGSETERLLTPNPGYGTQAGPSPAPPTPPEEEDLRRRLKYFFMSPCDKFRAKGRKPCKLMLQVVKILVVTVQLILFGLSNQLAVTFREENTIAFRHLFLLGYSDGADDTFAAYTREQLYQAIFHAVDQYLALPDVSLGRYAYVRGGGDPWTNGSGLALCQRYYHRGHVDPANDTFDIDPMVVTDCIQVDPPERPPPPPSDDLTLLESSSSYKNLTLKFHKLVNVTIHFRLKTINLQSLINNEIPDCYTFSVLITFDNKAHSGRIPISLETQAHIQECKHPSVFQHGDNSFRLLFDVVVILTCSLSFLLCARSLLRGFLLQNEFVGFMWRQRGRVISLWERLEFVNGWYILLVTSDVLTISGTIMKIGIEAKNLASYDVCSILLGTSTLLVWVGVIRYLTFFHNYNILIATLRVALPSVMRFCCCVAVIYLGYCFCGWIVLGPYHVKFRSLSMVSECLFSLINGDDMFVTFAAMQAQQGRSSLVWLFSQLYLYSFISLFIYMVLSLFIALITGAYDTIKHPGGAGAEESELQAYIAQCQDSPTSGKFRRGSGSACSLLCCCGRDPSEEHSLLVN
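In this qHTS format, compounds were pin-transferred onto Ca8-dye-loaded TRPML1-DL cells induced with Tet overnight, and intracellular Ca2+ fluorescence was recorded kinetically for 110 s after a 10 s baseline. A subsequent 4uM final 54-4 (EC80) addition followed by a second 110 s read served as the antagonist phase.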
D2 agonist – Beta-Arrestin HTS for Positive Allosteric Modulators of the Human D2 Dopamine Receptor: Agonists | 360,000 compounds, 0.084% hits | D(2) dopamine receptor (Homo sapiens), P14416 | AID 624465, 2012 | DiscoveRx PathHunter D2 beta-arrestin, luminescence, 90 min; 100% = 57 uM dopamine signal | activation, % (no concentration beside the values); in the data active = activation above about 40%; inconclusive = about 15% to 40%; inactive = below about 15%; also: compound concentration not given in the record; the text of the record calls up to 30% inactive
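Agonist mode: compounds alone added to overnight-plated D2 PathHunter cells for 90 min at 37 C, with 57 uM final dopamine (EC100) defining full response. Beta-arrestin recruitment detected by chemiluminescent reagent, read after 1 h at ambient temperature.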
Six1-Eya2 inh – qHTS Assay for Inhibitors of the Six1/Eya2 Interaction | activity change, % (no concentration beside the values) | AID 651725, 2012 | 360,000 compounds, 0.56% hits | AlphaScreen GST-Six1/His-Eya2 binding, biochemical; stronger effect = lower value; control for the full effect not named in the record; in the data active = activity change below about -65%; inconclusive = about -30% to -65%; inactive = above about -30%; also: % is scaled to controls: 0 for no effect and ±100 for the full control effect
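Six1/Eya2 binding was read as AlphaScreen signal after compounds were pinned into GST-Six1 plus His-tagged Eya2 (5X stock 250/500 nM) in pH 8.0 Tris/NaCl/TCEP buffer, beads added, then incubated 1 h, 37 C, dark.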
CtBP-E1A blk – qHTS Assay for Inhibitors of the CtBP/E1A Interaction; CtBP / adenovirus E1A interaction (AlphaScreen); AlphaScreen GST-E1A/His-CtBP binding, 1536-well; stronger effect = lower value; control for the full effect not named in the record; activity change, % (concentration not given with the values); 340,000 compounds, 0.49% hits; in the data active means activity change below about -65%; inconclusive means about -30% to -65%; inactive means above about -30%; also: % is scaled to controls: 0 for no effect and ±100 for the full control effect
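AlphaScreen with 125 nM GST-E1A and 125 nM His-CtBP (5X stocks) in Tris pH 8.0, 300 mM NaCl, BSA, Tween 20, TCEP. Compounds preincubated 2 h at 37 deg C, then glutathione donor/nickel acceptor beads added for 1 h at 37 deg C in dark.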
* hit, by the source's call; ? = inconclusive; . = no result given; & = joins results of further samples; [ ] = dose if it differs, or a comment.

SMILES	PINK1 expr mod	D2 potentiator	TRPML1 ag	D2 agonist	Six1-Eya2 inh	CtBP-E1A blk
COc1ccc(C(=O)NC2(C(F)(F)F)C(=O)Nc3c2c(=O)[nH]c(=O)n3CCc2ccc(OC)c(OC)c2)cc1 (configuration not stated)	0.4%	?	-0.4&-0.5	-0.8	3	7
O=C(CSc1nc2c(c(=O)[nH]1)CCC2)Nc1cccc(Cl)c1	3.6%	-8	1.1	-2.6	-2	0
CCOc1ccc2c(c1)nc(SCC(=O)c1cccs1)n2C	4.0%	-14	0.2	-2.9	3	1
O=C(NCCC1CCCCN1S(=O)(=O)c1ccc(F)cc1)C(=O)NC1CC1 (configuration not stated)	2.4%	-20	0.0	4.2	5	5
CC(C)(C)c1ccccc1NC(=O)Nc1nc(C(N)c2ccccc2)cs1 (configuration not stated)	2.1%	-23	-0.2	-10	-21	-12
CCC(=O)NC(Nc1nc2ccc(C)cc2s1)(C(=O)OC)C(F)(F)F (configuration not stated)	0.6%	0	0.0	-6.6	-2	.
FC(F)(F)c1ccccc1NC(=S)N1CCCC1	-0.5%	-4	-0.1	-3.0	2	3
Cc1ccnc(NC(=O)C2CCCN(S(=O)(=O)c3ccc4[nH]c(=O)ccc4c3)C2)c1 (configuration not stated)	-1.5%	-2	0.8	-0.5	-1	3
CCC(C)(C(=O)NC1CCCCC1)N(Cc1cccs1)C(=O)Cc1cccs1 (configuration not stated)	3.9%	-8	-0.7	-1.4	1	2
CCOC(=O)CNC(=O)CCc1nnc2ccc(N3CCC(C)CC3)nn12	0.6%	-3	1.5	-1.3	-1	.
O=C(COC(=O)c1ccc(Cl)nc1)Nc1cc(S(=O)(=O)N2CCOCC2)ccc1Cl	-0.3%	-7	2.1	-0.7	4	-11
CCOc1ccc2nc(N=NC3=C(O)CC(C)(C)CC3=O)sc2c1	-0.9%	-9	3.6	2.2	-4	1
COCCCn1c(SCC(=O)N2CCCC(C)C2)nnc1-c1ccco1 (configuration not stated)	?	-4	1.4	-0.4	1	5
Cc1cccc2c1cnn2C(=O)CCC(=O)N1CC(C)CC(C)C1 (configuration not stated)	0.9%	-1	0.0	-0.9	2	8
CN(C)S(=O)(=O)c1ccc(N2CCCC2)c(C(=O)Nc2ccc(Br)cc2F)c1	9.5%	8	1.1	3.8	-6	-5
Cc1ccc(NC(=O)c2ccco2)cc1	1.7%	-3	0.2	1.1	-3	2
COc1cc2cc(CN(CCO)S(=O)(=O)c3ccccc3)c(=O)[nH]c2cc1OC	.	-5	0.5	-3.0	-13	-11
CSc1cc(-c2ccccc2)n(C)c(=O)c1C#N	1.0%	-11	2.5	-4.4	2	27
CCN(CC)S(=O)(=O)c1ccc(N2CCN(CCO)CC2)nc1	-2.1%	-15	3.0	-2.5	2	7
Nc1cc(C(=O)OCC(=O)NC(c2ccccc2)c2ccccc2)ccc1Cl	2.3%	-5	-0.1	-1.5	4	8
CC(C)(C)C(=O)Nc1ccc(-c2cn3ccsc3n2)cc1	-0.1%	11	-0.4	-1.6	-14	-4
O=C(N/N=C\C=C\c1ccco1)c1cc(-c2ccc3ccccc3c2)n[nH]1	?	-5	0.9	9.7	-19	.
C=CCn1c(SCC(=O)O)nnc1-c1ccccc1	15%[38.3 µM]	-3	-0.6	-1.6	22	45
O=C(O)CCC(=O)NCc1ccc(F)cc1	5.3%[38.3 µM]	-7	0.1	-1.4	2	7
C[C@@H]1CN([C@H](C)CO)C(=O)CCCn2nncc2CO[C@H]1CN(C)Cc1ccc(C(F)(F)F)cc1	-0.7%	-2	-0.5	-2.2	3	5
Nc1c(-c2ccsc2)cnc2ncnn12	0.2%	-6	0.1	-0.2	-4	4
O=S(=O)(c1ccc2nc(-c3ccccc3)[nH]c2c1)N1CCN(c2ccc(Cl)cc2)CC1	-1.9%	?	0.7	14	-5	-13
CCOC(=O)C1=C(CSc2nc3ccccc3s2)NC(=O)NC1c1ccc(OC)cc1 (configuration not stated)	.	3	1.8	2.3	-12	-11
COC(=O)c1ccccc1NC(=O)C1CCN(C(=O)c2cc(OC)cc(OC)c2)CC1	-2.4%	8	-0.7	0.5	2	3
CCCCC(=O)N1CC2(C)CN(C(=O)CCCC)CC(C)(C1)C2=O	0.8%	13	-0.3	-8.8	9	7
O=C1C(Cc2ccc(Br)cc2)SC(=Nc2ccccc2)N1c1ccccc1 (configuration not stated)	2.3%	-15	2.6	1.1	11	16
COc1ccc(C2/C(=C(/O)c3ccccc3)C(=O)C(=O)N2CCO)cc1 (configuration not stated)	-1.1%	4	0.2	-0.8	7	-4
CCOc1ccccc1NC(=O)Cn1cnc2c(nnn2-c2cccc(OC)c2)c1=O	0.5%	0	0.1	1.7	-1	-9
CC(CCc1ccccc1)NC(=O)CCC(=O)N1CCC(C(N)=O)CC1 (configuration not stated)	2.3%	-4	-0.2	-4.7	-1	12
N#Cc1c(N)sc(=S)c2c1CCCC2	0.6%	-42	-0.4	-9.4	?	?
CCCCNC(=O)c1nn2c(C(F)(F)F)cc(-c3ccc(OC)cc3)nc2c1Br	15%	1	3.3	-2.0	-19	-2
CNc1ccc(SC#N)cc1	1.2%	-33	-1.3	-25	-12	0
C=C(C)C1CC=C(C)/C(=N/NC(=O)COc2cccc(C)c2)C1 (configuration not stated)	2.4%	-4	0.3	-2.2	-2	4
COc1ccc(-n2nc3c(c2NC(=O)C(C)Oc2ccccc2)CS(=O)C3)cc1 (configuration not stated)	-1.2%	-7	0.7	-5.8	4	9
O=C(Nc1ccccc1)OCCNC(=O)c1ccccc1	-0.8%	-2	0.9	-3.7	-10	-2
CCCC(=O)N(Cc1cc2cccc(C)c2[nH]c1=O)c1ccccc1OC	-2.1%[38.3 µM]	0	0.3	2.7	0	-1
Cc1cc(C)nc(NS(=O)(=O)c2ccc(NC(=S)NC(=O)c3cccnc3)cc2)n1	-0.9%	-16	-0.4	-8.0	-1	-1
CCN(CC)c1ncnc2c1cnn2Cc1ccc(C)cc1	3.6%	3	-0.4	14	13	0
O=C(NN1C(=O)c2ccccc2NC1c1ccoc1)c1ccccc1 (configuration not stated)	0.8%	-4	1.1	-2.3	1	.
COc1ccc(C(=O)N/C(=C\c2ccc(Cl)cc2)C(=O)NCCN2CCOCC2)cc1	0.5%	-21	0.0	-1.0	-1	0
CC(=O)Nc1ccc(-c2csc(NC(=O)CC(NC(C)=O)c3ccccc3)n2)cc1 (configuration not stated)	-0.4%	2	-0.6	0.3	-1	-5
O=C(NCCNC(=O)c1ccco1)c1ccc(F)cc1	4.0%	-3	-0.3	-1.8	1	12
Cn1c(N)c(C(=O)CSc2ccc3c(c2)OCCO3)c(=O)n(C)c1=O	-0.8%	-3	-0.2	-1.4	-11	-15
CCc1ccc(N2C(=O)c3ccc4c5c(ccc(c35)C2=O)CC4)cc1	3.4%	17	-0.7	1.0	3	3
CC(O)CNc1nc2c(c(=O)n(Cc3ccc(Cl)c(Cl)c3)c(=O)n2C)n1C (configuration not stated)	-0.5%	5	0.2	-0.7	-2	.
CC(=O)c1ccc(O)c(CSc2nncn2C)c1	0.5%	-3	-0.4	-5.6	4	7
Cc1cc(N=Nc2ccc(Cl)cc2)cc(CN2CCCC2)c1O	4.2%	-11	5.3	-6.7	?	?
COc1cc(CN2c3ccccc3C(=O)CS2(=O)=O)cc(OC)c1	1.0%	2	-0.4	-2.4	10	7
CCOC(=O)N1CCC(N2CCN(c3cc(C)ccc3C)CC2)CC1	1.7%[38.3 µM]	-9	0.0	1.2	-3	3
COc1cccc(CCc2nc3ccccc3c(=O)n2N)c1	3.5%	-14	-0.8	-4.4	3	.
CCC(=O)N(C1=C(NC(C)C)C(=O)c2ccccc2C1=O)C(C)C	3.1%	-8	1.4	-2.5	-3	-16
Cc1ccc(NC(=O)COC(=O)CCc2c(C)nc3nc(N)nn3c2C)cc1C	2.0%	-18	0.3	-5.3	2	-5
Cc1c2cnn(CC(=O)NCCCN3CCCCC3)c(=O)c2c(C)n1Cc1ccccc1	-0.9%	-7	0.4	-2.3	-2	-2
COc1cccc(CNC(=O)CCNC(=O)C2CCN(S(=O)(=O)c3ccc(F)cc3)CC2)c1	2.7%	-2	-0.7	1.8	0	.
CC(=O)N1CCCN(Cc2cn(-c3ccc(C)cc3)nc2-c2cccc(C)c2)CC1	0.5%	-27	-0.4	-4.1	-11	.

Another view of 4 compounds above:
molecule | PINK1 expr mod | D2 potentiator | TRPML1 ag | D2 agonist | Six1-Eya2 inh | CtBP-E1A blk
O=C(NCCC1CCCCN1S(=O)(=O)c1ccc(F)cc1)C(=O)NC1CC1 (configuration not stated) | 2.4% | -20 | 0.0 | 4.2 | 5 | 5
CC(CCc1ccccc1)NC(=O)CCC(=O)N1CCC(C(N)=O)CC1 (configuration not stated) | 2.3% | -4 | -0.2 | -4.7 | -1 | 12
N#Cc1c(N)sc(=S)c2c1CCCC2 | 0.6% | -42 | -0.4 | -9.4 | ? | ?
Cn1c(N)c(C(=O)CSc2ccc3c(c2)OCCO3)c(=O)n(C)c1=O | -0.8% | -3 | -0.2 | -1.4 | -11 | -15

Next part.
SMILES	PINK1 expr mod	D2 potentiator	TRPML1 ag	D2 agonist	Six1-Eya2 inh	CtBP-E1A blk
CCOC(=O)c1cnc2c(C(=O)OC)cccc2c1NCCN1CCOCC1	5.0%[38.3 µM]	-3	0.5	2.5	-2	-3
CC(Sc1nc2ccccc2c(=O)n1CC1CCCO1)C(=O)Nc1ccc(S(N)(=O)=O)cc1 (configuration not stated)	0.6%	-32	-1.0	-4.0	-5	5
C=CCNc1nc(N(c2ccccc2)c2ccccc2)nc(-n2ccnc2)n1	.	1	2.9	-2.6	-2	6
N#Cc1cccnc1N1CCN(C(=O)c2ccccc2)CC1	-0.6%	-11	0.8	0.7	-6	0
COCCN(CCOC)Cc1cc(=O)oc2cc(C)cc(C)c12	2.8%	-8	0.1	-4.6	5	-2
CN1C(=O)NC(c2ccccc2)C2=C1CN(Cc1ccco1)C2=O (configuration not stated)	-0.7%	-5	-0.3	-4.4	7	-10
CCN(CC)C(=O)Cn1c(=O)n(-c2ccc(CC(=O)NCc3ccccc3)cc2)c(=O)c2sccc21	0.0%	-2	-0.4	-2.8	4	.
Cn1cccc1/C=C1\SC(=O)N(c2ccc(O)cc2)C1=O	10%	-21	1.7	-4.7	-4	-1
O=S(=O)(Nc1cccnc1)c1ccc(Cl)c(C(F)(F)F)c1	-0.5%	8	0.5	-0.2	-1	-10
Oc1ccc(Cl)cc1C1=NNC(c2ccc(Cl)cc2)C1 (configuration not stated)	18%	-2	1.6	-0.4	5	-4

Source: PubChem (National Center for Advancing Translational Sciences (NCATS))
